HIV Env fusion: HIV envelope-mediated fusion inhibition | HeLa-JRFL Env/CEM21 cell fusion, luciferase | inhibition, % at 12.3 µM | actives 1.1% (n = 360,000);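 active means mean replicate inhibition score of at least 50 and every replicate individually at or above 50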;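 further: 0% = plate neutral controls and 100% = maraviroc near 300 nM; one replicate is shown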
UUG fidelity: modulators of start codon recognition fidelity in yeast; S. cerevisiae UUG-firefly luciferase reporter, luminescence/redox ratio; activity score, % at 18.7 µM; actives 0.13% (n = 350,000);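 active means replicate mean at a twofold rise or more, about +100% in these data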;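 further: firefly luciferase made from a UUG start codon reports start codon fidelity; reporter light over untreated wells divided by growth signal over untreated wells; some hits fall short of that in this replicate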
Numbers without * were called inactive; & = joins results of further samples; [ ] = another dose, or the depositor's remark. A portion of the library (hit frequency here may not be typical).

HIV Env fusion,UUG fidelity,canonical_smiles
9[16.7 µM],13,C[C@@H]1CCCCO[C@H](CN(C)S(=O)(=O)c2ccc(Cl)cc2)[C@H](C)CN([C@@H](C)CO)C(=O)c2cc(NC(=O)NC3CCCCC3)ccc2O1
10[16.7 µM],-14,O=C(C[C@@H]1C=C[C@@H](NS(=O)(=O)c2ccc(F)cc2)[C@@H](CO)O1)NCCN1CCCCC1
9[16.7 µM],-14,COC(=O)C[C@@H]1CC[C@H](NC(=O)c2ccccc2)[C@H](CO)O1
-3[16.7 µM],-4,COc1ccc(S(=O)(=O)N[C@@H]2CC[C@@H](CC(=O)O)O[C@@H]2CO)cc1
1[16.7 µM],-4,Cc1noc(C)c1NC(=O)N(C)C[C@H]1OCCCC[C@@H](C)Oc2ccc(NC(=O)C3CCCCC3)cc2C(=O)N([C@@H](C)CO)C[C@@H]1C
-25[16.7 µM],-1,CNC(=O)C[C@H]1CC[C@H]2[C@@H](COc3ccc(NC(=O)c4ccccc4Cl)cc3C(=O)N2C)O1
7[16.7 µM],-9,C[C@@H]1CCCCO[C@H](CN(C)C(=O)Nc2ccc(F)cc2)[C@H](C)CN([C@H](C)CO)C(=O)c2cc(NC(=O)Nc3ccc(C(F)(F)F)cc3)ccc2O1
-8[16.7 µM],10,CCCNC(=O)N(C)C[C@@H]1Oc2ncc(C#CC3(O)CCCC3)cc2C(=O)N([C@H](C)CO)C[C@H]1C
12[16.7 µM],12,C[C@@H]1CN([C@H](C)CO)C(=O)c2cccc(NC(=O)c3cnccn3)c2O[C@H]1CN(C)Cc1ccc(Cl)c(Cl)c1
-3[16.7 µM],-7,NC(=O)[C@H]1[C@@H]2C(=O)O[C@@H](c3ccccc3)[C@@H](c3ccccc3)N2[C@@H](c2ccc(O)cc2)[C@]12C(=O)Nc1ccc(C#CCCO)cc12
-28[16.7 µM],1,C[C@@H]1CN([C@H](C)CO)C(=O)c2cc(NS(=O)(=O)c3ccccc3)ccc2O[C@@H](C)CCCCO[C@@H]1CN(C)C(=O)CCC(F)(F)F
-15[16.7 µM],4,C[C@@H]1CN([C@H](C)CO)C(=O)c2cc(NS(=O)(=O)c3ccccc3)ccc2O[C@@H](C)CCCCO[C@@H]1CN(C)Cc1ccc(C(=O)O)cc1
12[16.7 µM],-6,Cc1noc(C)c1NC(=O)N(C)C[C@H]1Oc2ccc(NC(=O)Cn3cnnn3)cc2CC(=O)N([C@@H](C)CO)C[C@H]1C
10[16.7 µM],-15,COCC#Cc1cnc2c(c1)C(=O)N([C@@H](C)CO)C[C@@H](C)[C@H](CN(C)S(=O)(=O)c1ccccc1)O2
-32[16.7 µM],-10,Cc1noc(C)c1NC(=O)Nc1ccc2c(c1)C(=O)N([C@H](C)CO)C[C@H](C)[C@H](CN(C)Cc1ccccc1)O2
-118[16.7 µM],3,C[C@@H]1CN([C@@H](C)CO)C(=O)c2cc(NS(=O)(=O)c3ccc(F)cc3)ccc2O[C@@H](C)CCCCO[C@H]1CN(C)S(=O)(=O)c1ccc(Cl)cc1
4[16.7 µM],-18,CCCN(C)C[C@@H]1OCCCC[C@@H](C)Oc2ccc(NC(=O)Nc3ccc(F)cc3)cc2C(=O)N([C@H](C)CO)C[C@@H]1C
-22[16.7 µM],9,C[C@@H]1CN([C@@H](C)CO)C(=O)Cc2cc(NS(=O)(=O)c3ccccc3)ccc2O[C@@H]1CN(C)S(=O)(=O)c1ccccc1
-8[16.7 µM],5,COc1ccc(NC(=O)Nc2ccc3c(c2)[C@@H]2C[C@@H](CC(=O)NCc4ccc5c(c4)OCO5)O[C@@H](CO)[C@@H]2O3)cc1
9[16.7 µM],-6,C[C@@H]1CN([C@@H](C)CO)C(=O)c2cc(NS(=O)(=O)c3cn(C)cn3)ccc2O[C@@H](C)CCCCO[C@@H]1CN(C)S(=O)(=O)c1cccs1
19[16.7 µM],5,COc1ccccc1-c1cn(CC[C@@H]2CC[C@@H](NC(=O)C3CCC3)[C@@H](CO)O2)nn1
4[16.7 µM],-7,C[C@H](CO)N1C[C@H](C)[C@H](CN(C)S(=O)(=O)c2cccs2)Oc2ncc(-c3ccc(F)cc3)cc2C1=O
7[16.7 µM],2,COCC(=O)N[C@H]1C=C[C@@H](CC(=O)NCc2ccccc2OC)O[C@H]1CO
8[16.7 µM],8,C[C@@H]1CN([C@H](C)CO)C(=O)c2cc(-c3ccc(F)cc3)cnc2O[C@H]1CN(C)Cc1ccc(F)cc1
-16[16.7 µM],-4,O=C(N[C@@H]1CC[C@@H](CCNS(=O)(=O)c2ccc(F)cc2)O[C@@H]1CO)c1cccc(F)c1
-10[16.7 µM],-12,C[C@H]1CN([C@@H](C)CO)C(=O)c2cc(NC(=O)Nc3ccc4c(c3)OCO4)ccc2O[C@@H]1CN(C)S(=O)(=O)c1cn(C)cn1
4[16.7 µM],0,N#C[C@@H]1[C@H](c2ccc(-c3cccnc3)cc2)[C@H](CO)N1C(=O)C1CC1
-8[16.7 µM],-4,COC(=O)C[C@@H]1C[C@@H]2c3cc(NC(=O)Cc4ccncc4)ccc3O[C@@H]2[C@H](CO)O1
8[16.7 µM],26,Cc1cc(C(=O)Nc2cccc3c2O[C@H](CN(C)Cc2ccc4c(c2)OCO4)[C@@H](C)CN([C@@H](C)CO)C3=O)n(C)n1
20[16.7 µM],-13,C[C@@H]1CN([C@@H](C)CO)C(=O)c2cc(NC(=O)Nc3ccc(C(F)(F)F)cc3)ccc2O[C@@H](C)CCCCO[C@@H]1CN(C)C(=O)C1CCCCC1

Compound profiles, as listed above. Order of screens: HIV Env fusion	UUG fidelity
Results for COC(=O)C[C@@H]1C[C@@H]2c3cc(NC(=O)Cc4ccncc4)ccc3O[C@@H]2[C@H](CO)O1 : -8[16.7 µM]	-4
Results for C[C@H]1CN([C@@H](C)CO)C(=O)c2cc(NC(=O)Nc3ccc4c(c3)OCO4)ccc2O[C@@H]1CN(C)S(=O)(=O)c1cn(C)cn1 : -10[16.7 µM]	-12

Structures from the list above that have a thiophene ring, fused or not:
HIV Env fusion,UUG fidelity,canonical_smiles
9[16.7 µM],-6,C[C@@H]1CN([C@@H](C)CO)C(=O)c2cc(NS(=O)(=O)c3cn(C)cn3)ccc2O[C@@H](C)CCCCO[C@@H]1CN(C)S(=O)(=O)c1cccs1
4[16.7 µM],-7,C[C@H](CO)N1C[C@H](C)[C@H](CN(C)S(=O)(=O)c2cccs2)Oc2ncc(-c3ccc(F)cc3)cc2C1=O

(continued)
HIV Env fusion,UUG fidelity,canonical_smiles
0[16.7 µM],-8,O=C(C[C@H]1CC[C@H](NC(=O)Nc2ccc(F)cc2)[C@H](CO)O1)NCc1ccccn1
-19[16.7 µM],7,COc1ccc(S(=O)(=O)Nc2ccc3c(c2)C(=O)N([C@H](C)CO)C[C@@H](C)[C@H](CN(C)S(=O)(=O)c2ccc(C)cc2)OCCCC[C@@H](C)O3)cc1
4[16.7 µM],-1,CC(C)NC(=O)Nc1ccc2c(c1)CC(=O)N([C@H](C)CO)C[C@@H](C)[C@H](CN(C)Cc1ccc(-c3ccccc3)cc1)O2
5[16.7 µM],12,C[C@@H]1CN([C@@H](C)CO)C(=O)c2cc(C3=CCCC3)cnc2O[C@@H]1CN(C)C(=O)Nc1cccc(F)c1
9[16.7 µM],5,C[C@@H]1CN([C@H](C)CO)S(=O)(=O)c2ccc(/C=C/c3ccccc3)cc2O[C@@H]1CN(C)CC1CC1
-23[16.7 µM],23,C[C@H](O)C#Cc1ccc2c(c1)O[C@@H](CN(C)C(=O)Nc1ccccc1)[C@@H](C)CN([C@@H](C)CO)S2(=O)=O
4[16.7 µM],-7,C[C@@H]1CN([C@H](C)CO)C(=O)c2cc(/C=C/c3ccccc3)cnc2O[C@H]1CN(C)Cc1ccccc1
20[16.7 µM],-10,CC(C)NC(=O)N(C)C[C@H]1OCCCC[C@@H](C)Oc2ccc(NC(=O)Nc3ccc(F)cc3)cc2C(=O)N([C@H](C)CO)C[C@@H]1C
-14[16.7 µM],-12,COCC(=O)Nc1ccc2c(c1)C(=O)N(C)C[C@@H](OC)[C@H](C)CN(Cc1ccncc1)[C@@H](C)CO2
19[16.7 µM],7,C[C@H](CO)N1C[C@H](C)[C@@H](CN(C)C(=O)Nc2ccc(C(F)(F)F)cc2)OCCCC[C@H](C)Oc2ccc(NS(=O)(=O)c3ccccc3)cc2C1=O

Rewritten bar-delimited: 3 of the compounds above.
SMILES | HIV Env fusion | UUG fidelity
C[C@@H]1CN([C@@H](C)CO)C(=O)c2cc(NS(=O)(=O)c3ccc(F)cc3)ccc2O[C@@H](C)CCCCO[C@H]1CN(C)S(=O)(=O)c1ccc(Cl)cc1 | -118[16.7 µM] | 3
CCCN(C)C[C@@H]1OCCCC[C@@H](C)Oc2ccc(NC(=O)Nc3ccc(F)cc3)cc2C(=O)N([C@H](C)CO)C[C@@H]1C | 4[16.7 µM] | -18
C[C@@H]1CN([C@@H](C)CO)C(=O)Cc2cc(NS(=O)(=O)c3ccccc3)ccc2O[C@@H]1CN(C)S(=O)(=O)c1ccccc1 | -22[16.7 µM] | 9

Next entries:
HIV Env fusion,UUG fidelity,canonical_smiles
-30[16.7 µM],42,C[C@H](CO)N1C[C@H](C)[C@H](CN(C)C(=O)Nc2ccccc2)OCCCC[C@H](C)Oc2ccc(NC(=O)CCC(F)(F)F)cc2C1=O
-7[16.7 µM],-21,CCCNC(=O)C[C@@H]1C[C@H]2c3cc(NC(=O)C4CCOCC4)ccc3O[C@H]2[C@@H](CO)O1
-3[16.7 µM],-8,CCCN(C)C[C@H]1OCCCC[C@@H](C)Oc2ccc(NC(=O)Nc3ccc(OC)cc3)cc2C(=O)N([C@H](C)CO)C[C@@H]1C
-5[16.7 µM],-1,Cc1noc(C)c1NC(=O)N(C)C[C@@H]1Oc2ccc(NC(=O)Nc3ccccc3)cc2C(=O)N([C@H](C)CO)C[C@@H]1C
21[16.7 µM],9,COc1ccc(NC(=O)Nc2ccc3c(c2)C(=O)N([C@H](C)CO)C[C@H](C)[C@@H](CN(C)S(=O)(=O)c2cn(C)cn2)OCCCC[C@@H](C)O3)cc1
-13[16.7 µM],9,C[C@H](CO)N1C[C@H](C)[C@@H](CN(C)C)Oc2cc(-c3ccncc3)ccc2S1(=O)=O
-8[16.7 µM],10,CCCN(C)C[C@@H]1Oc2ncc(-c3ccccc3OC)cc2C(=O)N([C@H](C)CO)C[C@@H]1C
-13[16.7 µM],-11,CCC(=O)N[C@H]1C=C[C@H](CC(=O)NCc2ccc(OC)cc2)O[C@H]1CO
-4[16.7 µM],-7,N#C[C@@H]1[C@@H](c2ccccc2)[C@@H](CO)N1S(=O)(=O)c1cccc(F)c1
33[16.7 µM],-8,C[C@@H]1CCCCO[C@@H](CN(C)C(=O)Nc2ccccc2)[C@@H](C)CN([C@H](C)CO)C(=O)c2cc(NS(=O)(=O)c3ccc(F)cc3)ccc2O1
1[16.7 µM],-3,C[C@H](CO)N1C[C@H](C)[C@H](CN(C)C(=O)CC2CC2)Oc2cc(-c3ccccc3)ccc2S1(=O)=O
-33[16.7 µM],-8,CNC[C@H]1Oc2ccc(NS(=O)(=O)c3c(C)noc3C)cc2CC(=O)N([C@H](C)CO)C[C@@H]1C
19[16.7 µM],18,C[C@@H]1CN([C@H](C)CO)C(=O)c2cc(NC(=O)Cc3ccccc3)ccc2O[C@@H](C)CCCCO[C@@H]1CN(C)C(=O)c1ccncc1
14[16.7 µM],6,Cc1ccc(S(=O)(=O)N(C)C[C@@H]2Oc3ccc(NS(=O)(=O)c4c(C)noc4C)cc3C(=O)N([C@@H](C)CO)C[C@@H]2C)cc1
1[16.7 µM],47,CCC(=O)N(C)C[C@H]1Oc2ncc(-c3ccc(C(=O)N(C)C)cc3)cc2C(=O)N([C@@H](C)CO)C[C@H]1C
-21[16.7 µM],15,Cc1ccc(S(=O)(=O)N[C@@H]2CCCN(Cc3cccc(OCCO)c3)C2)cc1
12[16.7 µM],-1,Cc1noc(C)c1NC(=O)Nc1ccc2c(c1)C(=O)N([C@H](C)CO)C[C@@H](C)[C@H](CN(C)Cc1ccccc1)OCCCC[C@@H](C)O2
-12[16.7 µM],-12,C[C@H]1CCCCO[C@@H](CN(C)C(=O)Nc2ccc(F)cc2)[C@@H](C)CN([C@@H](C)CO)C(=O)c2cc(NC(=O)Nc3ccccc3)ccc2O1
12[16.7 µM],21,CCCC#Cc1ccc2c(c1)O[C@@H](CN(C)C(=O)c1ccccc1F)[C@H](C)CN([C@@H](C)CO)S2(=O)=O
24[16.7 µM],7,O=C(C[C@@H]1C[C@H]2c3cc(NC(=O)Cc4ccncc4)ccc3O[C@H]2[C@@H](CO)O1)NCC1CC1
1[16.7 µM],-5,C[C@@H]1CCCCO[C@@H](CN(C)C(=O)c2ccncc2)[C@H](C)CN([C@@H](C)CO)C(=O)c2cc(NS(=O)(=O)c3cn(C)cn3)ccc2O1
14&7[16.7 µM],0&8,C[C@H](CO)N1C[C@H](C)[C@H](CN(C)C(=O)NC2CCCC2)Oc2ncc(Br)cc2C1=O
-2[16.7 µM],-1,C[C@@H]1CCCCO[C@@H](CN(C)Cc2ccncc2)[C@@H](C)CN([C@@H](C)CO)C(=O)c2cc(NC(=O)CCC(F)(F)F)ccc2O1
-7[16.7 µM],0,COc1ccc(S(=O)(=O)Nc2ccc3c(c2)CC(=O)N([C@H](C)CO)C[C@@H](C)[C@H](CN(C)S(=O)(=O)c2c(C)noc2C)O3)cc1
-27[16.7 µM],-14,CCCNC(=O)N1C[C@H](O)COC[C@@H]2O[C@@H](CC(=O)N[C@@H]3CCN(Cc4ccccc4)C3)CC[C@H]21
11[16.7 µM],-11,C[C@H](CO)N1C[C@H](C)[C@@H](CN(C)C(=O)Cc2ccccc2)OCCCC[C@H](C)Oc2ccc(NC(=O)Nc3cccc4ccccc34)cc2C1=O
-12[16.7 µM],-3,O=C(C[C@@H]1CC[C@@H]2[C@H](COC[C@@H](O)CN2C(=O)C2CC2)O1)NCc1ccccc1Cl
-3[16.7 µM],-12,Cc1noc(C)c1NC(=O)N(C)C[C@@H]1Oc2ccc(NS(=O)(=O)c3c(C)noc3C)cc2CC(=O)N([C@@H](C)CO)C[C@H]1C

Screening data (PubChem BioAssay)
